Screens deposited in PubChem by National Center for Advancing Translational Sciences (NCATS).
Resorufin fluor = qHTS Assay for Spectroscopic Profiling in Resorufin Spectral Region | AID 588, 2007 | 59,000 compounds, 0.04% hits | max dye-equivalent concentration, M | Compound fluorescence, resorufin region 547/598 nm, buffer; active compounds read high; active = above 10 nM dye equivalent; inconclusive = 1 to 10 nM; inactive = 1 nM or less; a few of its hits are not listed in these tables; note: highest value over a series up to 38 µM
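Dye-equivalent concentration values derive from comparing each well's 547/598 nm fluorescence against resorufin standards included on every plate. Incubation was 15 min at room temperature in 100 mM Tris, pH 8.0.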
AID923 = qHTS Assay for Allosteric/Competitive Inhibitors of Caspase-1: Spectroscopic Profiling in AFC Spectral Region. compound fluorescence, AFC spectral region (405/520 nm); almost no hit is shown here. Potency, µM (top dose mostly 57.5 µM), inactives show at the top dose fluorescence increase, most hits filed as activators. 75,000 compounds, 1.1% hits. AID 923, 2007; active = well fitted activation curve with a large enough effect; inconclusive = small, poorly fitted or top-dose-only effect;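 note: potency is the fitted concentration of half-maximal effect; 0% is about no effect; scaled to a free AFC standard on each plate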
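Compound autofluorescence profiled at 405 nm ex/520 nm em during kinetic caspase 1 run (50 nM enzyme, 5 uM Ac-WEHD-AFC, HEPES pH 7.5, 10 mM DTT). Titration up to 57 uM; baseline from regression intercept, normalized to AFC standard curve.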
TSHR ag = qHTS Assay for Agonists of the Thyroid Stimulating Hormone Receptor. Thyrotropin receptor (Homo sapiens), P16473. HEK293-CNG-TSHR cells (CNG channel as cAMP sensor), membrane potential dye, cAMP. Potency, µM (titrated, usually from 57.1 µM), for inactives: top-dose activation, most hits filed as activators. 73,000 compounds, 0.48% hits; active = well fitted activation curve of enough size with the parental cells flat; inconclusive = any curve in the parental cells; inactive = parental cells flat and receptor cells flat or falling; note: potency is the fitted concentration of half-maximal effect; % of control where 0% means no effect; weak receptor curves with flat parental cells got no call and are not listed
Target sequence (P16473 whole entry, looked up): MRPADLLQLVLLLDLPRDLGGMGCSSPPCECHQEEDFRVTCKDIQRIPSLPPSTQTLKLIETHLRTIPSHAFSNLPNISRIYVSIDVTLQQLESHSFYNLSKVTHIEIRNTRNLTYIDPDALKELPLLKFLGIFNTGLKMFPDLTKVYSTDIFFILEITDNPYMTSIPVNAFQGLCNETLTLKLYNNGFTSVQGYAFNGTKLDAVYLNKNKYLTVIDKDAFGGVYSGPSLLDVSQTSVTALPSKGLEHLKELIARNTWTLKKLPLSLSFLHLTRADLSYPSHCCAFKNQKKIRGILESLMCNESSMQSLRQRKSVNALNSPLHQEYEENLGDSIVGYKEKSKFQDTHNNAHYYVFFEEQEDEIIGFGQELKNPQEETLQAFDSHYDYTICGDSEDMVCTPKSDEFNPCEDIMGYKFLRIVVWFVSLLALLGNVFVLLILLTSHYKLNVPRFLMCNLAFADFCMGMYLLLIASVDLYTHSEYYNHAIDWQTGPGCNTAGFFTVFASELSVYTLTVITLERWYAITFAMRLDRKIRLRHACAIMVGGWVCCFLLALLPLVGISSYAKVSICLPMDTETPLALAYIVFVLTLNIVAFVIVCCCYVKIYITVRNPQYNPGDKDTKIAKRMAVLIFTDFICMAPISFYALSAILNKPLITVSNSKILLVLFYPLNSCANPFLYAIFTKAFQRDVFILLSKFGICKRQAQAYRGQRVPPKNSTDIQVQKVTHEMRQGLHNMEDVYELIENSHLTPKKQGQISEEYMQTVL
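HEK 293 cells stably expressing TSHR and a cAMP-gated CNG channel; parental CNG-only cells as counterscreen. Cells preloaded 60 min with membrane potential dye plus 100 uM RO 20-1724, then compound 30 min; fluorescence read at 590 nm.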
A647 fluor = qHTS Assay for Spectroscopic Profiling in A647 Spectral Region; max dye-equivalent concentration, M; 59,000 tested, under 10 active; AID 592, 2007; Compound fluorescence, A647 channel (570/671 nm), Tris buffer; active means above 1 µM dye equivalent; inconclusive means 0.1 to 1 µM; inactive means 0.1 µM or less;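 note: values scaled relative to a standard on each plate; highest value over a series up to 38 µM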
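Fluorescence read (570 nm ex, 671 nm em) after 15 min RT incubation of compounds in 100 mM Tris buffer, pH 8.0; values expressed as dye-equivalent concentration against a six-point A647 standard series on each plate.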
A488 autofl = qHTS Assay for Spectroscopic Profiling in A488 Spectral Region; 59,000 compounds, 0.1% hits; compound autofluorescence, A488 spectral region, dye equivalency; active compounds read high; AID 591, 2007; max dye equivalency, M; active = above 10 nM dye equivalent; inconclusive = 1 to 10 nM; inactive = 1 nM or less; about half of its hits are not listed in these tables;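 note: highest value over a series up to 38 µM; compound alone in buffer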
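Spectroscopic profiling in the A488 region: compounds in pH 8.0 Tris (100 mM), 15 min RT, CCD imaging with 480 nm excitation and 540 nm emission; responses normalized against A488 dye standards.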
Active calls of the source: *; i = inactive; ? = inconclusive; / = not tested or not shown; [ ] = another dose, or the depositor's remark. An excerpt; rates above refer to the full screens.

SMILES	Resorufin fluor	AID923	TSHR ag	A647 fluor	A488 autofl
Brc1ccc(-c2nnc3sc(CN4CCc5ccccc5C4)cn23)cc1	i	1.0%	10%	1.9e-09	i
Cc1cc(C)c2c(n1)nn1c(N3CCN(c4ccccn4)CC3)cc(C)nc21	i	3.2%	3%	2.9e-08	i
CCN(CC)S(=O)(=O)c1ccc2oc(C(=O)N3CCOCC3)c(C)c2c1	i	-1.4%	19%[11.4 µM]	1.2e-08	i
COc1ccc(S(=O)(=O)N2CCC(C(=O)NCc3ccco3)CC2)cc1	i	2.7%	3%	1e-09	i
c1ccc(-c2n[nH]c3c2CCC3)cc1	i	-1.0%	16%	4.1e-08	i
O=C(CN1CCOCC1)Nc1ccc(C2CCCCC2)cc1	i	-0.1%	2%	1e-09	i
Cc1cc(Nc2nc3c(c(=O)n(C)c(=O)n3C)n2C)n(-c2ccccc2)n1	i	1.1%	1%	3.1e-09	i
c1ccc2c(c1)-c1ccccc1C2N1CC2CCC(CC2)C1	i	-0.4%[11.5 µM]	12%[11.4 µM]	7.3e-09	i
CS(=O)(=O)Nc1cccc(-c2nc(NCCN3CCOCC3)c3ccccc3n2)c1	i	-1.2%	18%	2.6e-09	i
CCOC(=O)C1CCN(C(=O)c2ccc3snnc3c2)CC1	i	0.7%	3%	3.5e-08	i
COc1ccc(O)c(C(=O)c2cc(C#N)c(=O)n(-c3c(C)n(C)n(-c4ccccc4)c3=O)c2)c1	i	3.0%	4%	1e-09	?
COC(=O)CCc1c(C)[nH]c(C(=O)OCc2ccccc2)c1C	i	/	/	4.4e-09	i
OC(COc1c(F)cc(Br)cc1F)CN1CCN(c2ccc(F)cc2)CC1 (stereo not drawn)	i	1.2%	?	2.4e-08	i
C=CCn1cc(C(=O)NCCOC)c(=O)c2cc(S(=O)(=O)N(CC)CC)ccc21	i	-0.1%	2%	2.1e-09	i
O=C(CN1CCN(C2CCCCC2)CC1)Nc1ccccc1-c1ccccc1	i	-1.1%	?	2e-08	i
CC(=O)c1ccc(NC(=O)CCn2c(=O)oc3ccccc32)cc1	i	0.5%	0%	1.6e-09	i
CN(Cc1ccccc1)c1ncnc2c1cnn2-c1ccccc1	i	1.4%	/	1e-09	i
S=c1[nH]c2ccccc2s1	/	-2.7%	-4%	/	/
CC(=NCc1ccco1)C1=C(O)c2ccccc2C1=O	i	1.2%	6%	4.3e-09	i
CNc1cccccc1=S	i	5.0%	-5%	1e-09	i
CCN1C(=O)CC(N2CCC(C(=O)OC)CC2)C1=O (stereo not drawn)	i	1.9%	1%	1.7e-08	i
O=C(CN1CCOc2ccccc21)NCc1ccc(Cl)cc1	/	-1.0%	?	/	/
CC1(C)NC(=O)N(CCOCCOc2cccc(Oc3ccccc3)c2)C1=O	i	0.0%	20%	8.4e-09	i
O=C(CSc1ncccc1-c1nc2ccccc2[nH]1)NC1CC1	i	2.1%	-3%	4.1e-09	i
Cc1ccc(C2=[N+]([O-])C3(CCCCC/C3=N\O)N(O)C2(C)C)o1 (stereo not drawn)	/	-1.1%	?	/	/
O=C(NC1CCCC1)C1C2C=CC3(CN(Cc4cccs4)C(=O)C13)O2 (stereo not drawn)	/	-1.6%	7%	/	/
CC(C(=O)NCc1ccccc1)N1C(=O)CN(C)C(=O)c2ccccc21 (stereo not drawn)	i	-0.8%	-4%	1e-09	i
Cn1ccnc1SCC(=O)Nc1cccc2ccccc12	i	2.1%	7%	1.8e-08	i
O=C(C1CCC(=O)N1Cc1ccccc1Cl)N1CCN(c2cccc(Cl)c2)CC1 (stereo not drawn)	i	-0.3%	?	7.4e-09	i
CCN1CCN(C(=O)Cn2c(=O)sc3ccccc32)CC1	/	4.6%	?	/	/

By substructure: those above containing an aryl methoxy group (two)
SMILES	Resorufin fluor	AID923	TSHR ag	A647 fluor	A488 autofl
COc1ccc(S(=O)(=O)N2CCC(C(=O)NCc3ccco3)CC2)cc1	i	2.7%	3%	1e-09	i
COc1ccc(O)c(C(=O)c2cc(C#N)c(=O)n(-c3c(C)n(C)n(-c4ccccc4)c3=O)c2)c1	i	3.0%	4%	1e-09	?

Carrying on:
SMILES	Resorufin fluor	AID923	TSHR ag	A647 fluor	A488 autofl
Nc1nc(-c2ccccc2Br)cs1	i	0.3%	-3%	2.6e-08	i
Cc1[nH]nc2c1C(=O)CCC2	i	0.5%	?	1e-09	i
c1ccc(CCNc2ccccn2)nc1	i	-1.7%[11.5 µM]	-1%[11.4 µM]	5.6e-08	i
Cc1cc(C)c(S(=O)(=O)NCc2cn3c(C)csc3n2)c(C)c1	i	0.1%	-2%[11.4 µM]	2.5e-08	i
Cc1ccc(OCCN2C(=O)CSC2=O)cc1	i	1.2%	2%	1.2e-08	i
Cc1nc(N2CCN(Cc3ccccc3)CC2)nc2c1C(=O)CCC2	i	3.1%	11%	2.9e-09	i
C=CCOc1ccc(C(=O)N(Cc2ccc(N(C)C)cc2)C2CCS(=O)(=O)C2)cc1 (stereo not drawn)	i	-0.2%	11%	2.2e-08	i
CN(C)CCCN1C(=O)C(=O)/C(=C(/O)c2ccc3c(c2)OCCO3)C1c1ccco1 (stereo not drawn)	i	-1.2%	-2%	8.1e-09	i
N#Cc1ccc(CN2CC3(CCN(C(=O)c4csnn4)CC3)C2)cc1	i	2.7%	-1%	8.1e-09	i
NC(=O)c1ccccc1NS(=O)(=O)Cc1ccccc1	/	0.5%	-3%	/	/
CS(=O)(=O)Nc1ccccc1C(=O)N1CCOCC1	i	-1.3%	4%	4.7e-08	i
O=C(COC(=O)C12CC3CC(CC(O)(C3)C1)C2)NC(=O)NCc1ccco1	i	3.0%	-9%	4.6e-09	i
CCc1c(C)nc2[nH]nc(-c3ccccc3)n2c1=O	/	0.9%	2%	/	/
CC(=O)NC(C)c1nc2ccccc2n1C(C)C (stereo not drawn)	/	-0.7%	6%	/	/
CCOC(=O)CN(C(=O)CSc1nnc(-c2ccncc2)n1CCCN(C)C)c1ccccc1	i	-0.8%	-2%	6.1e-09	i
CS(=O)(=O)C1=C(O)C(=O)N(c2ccccc2)C1c1ccccc1 (stereo not drawn)	/	2.3%	-3%	/	/
COC(=O)c1ccccc1NC(NC(=O)c1ccco1)C(=O)c1ccc(C)cc1 (stereo not drawn)	/	3.6%	15%	/	/
Clc1ccc(-c2ccc(-c3nn4c(-c5ccco5)nnc4s3)o2)cc1	i	-3.1%	?	2.3e-08	i
CCn1c(CCNC(=O)c2ccc(Cl)cc2)nnc1SCC(=O)NC1CCCC1	i	-0.7%	6%	3.9e-08	i
CCC(=O)c1ccc(OCC(O)Cn2cnc3ccccc32)cc1 (stereo not drawn)	i	0.9%	8%	5.3e-09	i

As a short view, three of the compounds above:
SMILES	Resorufin fluor	AID923	TSHR ag	A647 fluor	A488 autofl
Brc1ccc(-c2nnc3sc(CN4CCc5ccccc5C4)cn23)cc1	i	1.0%	10%	1.9e-09	i
Cc1cc(C)c2c(n1)nn1c(N3CCN(c4ccccn4)CC3)cc(C)nc21	i	3.2%	3%	2.9e-08	i
CCN(CC)S(=O)(=O)c1ccc2oc(C(=O)N3CCOCC3)c(C)c2c1	i	-1.4%	19%[11.4 µM]	1.2e-08	i

Later entries.
SMILES	Resorufin fluor	AID923	TSHR ag	A647 fluor	A488 autofl
CCNc1nc(NC(C)C)nc(Oc2ccc(OCCOc3ccccc3)nn2)n1	/	-1.0%	?	/	/
CCOc1ccccc1C(=O)NC1CC2CCCC(C1)N2C1CC1 (stereo not drawn)	i	-2.5%	-2%	1e-09	i
CC(=O)c1cccc(N(C(=O)c2ccco2)C(C(=O)NC2CCCC2)c2ccncc2)c1 (stereo not drawn)	i	-0.1%	4%	4.6e-09	i
CN(Cc1ccco1)c1ncnc2ccc(-c3cccc(NS(C)(=O)=O)c3)cc12	i	2.1%	?	1e-09	i
CCOC(=O)N1CCC(NCCNC(=O)c2ccccc2)CC1	i	0.2%	0%	2.6e-08	i
NC(=O)c1ccc2c(c1)OCCO2	i	-0.3%	/	8.6e-09	i
CCCC(C(=O)NCc1ccco1)N(C(=O)CNS(=O)(=O)c1ccccc1)c1ccccc1OC (stereo not drawn)	i	0.6%	?	6.3e-09	i
CSc1nnc(-c2cnccn2)n1C	i	-0.6%	-4%	1e-09	i
O=C(CN1CCN(Cc2ccc3c(c2)OCO3)CC1)Nc1ccc2c(c1)OCCO2	i	-1.3%	2%	2.7e-08	i
c1csc(-c2nc3ccccc3[nH]2)c1	i	0.2%	9%	2.8e-08	i
CCN(CC)CCN1C(=O)C(=O)/C(=C(/O)c2c(C)[nH]c(C(=O)OC)c2C)C1c1cccc(OC)c1 (stereo not drawn)	i	/	/	2.1e-08	i
O=C1OC2(CCCCC2)OC(=O)C1=CNc1nccs1	i	-3.0%	4%	1e-09	i
COc1ccc(-c2nc(CSCC(=O)N3CCN(c4cccc(C)c4)C(C)C3)c(C)o2)cc1OC (stereo not drawn)	/	0.5%	?	/	/
COc1cc2c(cc1OC)C(C(=O)O)C(c1cc(Br)c(O)c(OC)c1)N(C)C2=O (stereo not drawn)	i	0.1%	5%[11.4 µM]	3.2e-09	i
CCOc1ccc(CN2CCN(c3cc(C)nc4c5c(C)cc(C)nc5nn34)CC2)cc1	i	5.2%	7%	4.4e-08	i
CCc1ccc(C2C3=C(CC(C)(C)CC3=O)Nc3c2c(=O)[nH]c2nc(C)nn32)cc1 (stereo not drawn)	i	3.1%	24%	3.5e-08	i
CCc1c(C)c2ccc(OCC(N)=O)cc2oc1=O	i	1.5%	-8%	1e-09	i
COC(=O)c1c(C)[nH]c(C)c1-c1ccccc1Cl	i	4.1%	/	3e-08	i
CCOc1ccc(N(C(C)C(=O)Nc2ccc(OC)cc2)S(C)(=O)=O)cc1 (stereo not drawn)	/	0.7%	4%[11.4 µM]	/	/
CCCn1c(SCC(=O)Nc2c(CC)cccc2CC)nnc1C(C)C	i	1.2%	?	1e-08	i
CCCCc1ccc(Nc2nc(CCC)cc(=O)[nH]2)cc1	i	-1.6%	5%	4.1e-08	i
COc1ccc(-c2nc(N3CCCC3)[nH]c(=O)c2C#N)cc1	i	-0.3%	1%	1.9e-09	i
Cc1c(C(=O)Nc2ccccc2N2CCOCC2)sc2nc3n(c(=O)c12)CCC3	i	0.8%	0%	3.5e-08	i
Nc1nonc1-c1noc(CCCN2C(=O)c3ccccc3C2=O)n1	i	2.3%	-3%	1e-09	i
COc1ccc2nc3oc(C(=O)N4CCN(c5cccc(Cl)c5)CC4)cc3cc2c1	i	-0.1%	15%	5.9e-09	i
Cc1ccc(S(=O)(=O)N(CCO)Cc2cc3ccc(C)c(C)c3[nH]c2=O)cc1	i	0.7%	11%	1e-09	i
CN(C)Cc1cc(Cl)c(O)c(CN(C)C)c1	i	4.6%[11.5 µM]	14%[11.4 µM]	1e-09	i
Cc1noc(C)c1C(=O)N1CCC2(CC1)CN(Cc1cc(C(F)(F)F)cc(C(F)(F)F)c1)C2	i	0.5%	2%	1.3e-09	i
O=C1c2ccccc2C(=O)N1c1ccc(Cc2ccc(N3C(=O)c4ccccc4C3=O)cc2)cc1	i	0.4%[11.5 µM]	3%[11.4 µM]	1e-09	i
C[C@@]1(CO)[C@H](O)CC[C@]2(C)[C@@H]1CC[C@H]1C[C@H]3C[C@]12CC[C@]3(O)COC(=O)CN	i	-1.7%[11.5 µM]	0%[11.4 µM]	1.2e-08	i
Cc1cccc(C(=O)Nc2ccc(CC(=O)O)cc2)c1	i	0.5%	-2%	2.7e-08	i
COCCCNC(=O)c1oc2ccc(S(=O)(=O)N(C)C3CCCCC3)cc2c1C	i	-2.8%	12%[11.4 µM]	6.9e-09	i
